gsp antagonist: qHTS for Antagonists of gsp, the Etiologic Mutation Responsible for Fibrous Dysplasia/McCune-Albright Syndrome: qHTS | 340,000 compounds, 0.4% hits | Potency, µM (top dose mostly 76.9 µM), without a hit: at the top dose activity change, negative = inhibition, usual class: inhibitors | gsp-mutant cells, cAMP HTRF, 30 min; control for the full effect not named in the record; active = falling curve of any shape with a large fitted effect; inconclusive = falling curve, mostly with a smaller effect; inactive = flat or rising curve; cell line not stated here;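 further: intracellular cAMP measured with PDE inhibitor Ro 20-1724 present during compound exposure; potency means the concentration at half of the fitted maximal effect; on the % scale 0 is the no-effect control and ±100 the full control effect; nearly all actives have a fitted effect of over 65% in size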
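Cells, 2000/well, grown 16–24 h in DMEM 10% FBS with 0.5 mg/ml G418, then compounds plus […] (300 uM addition stock), 30 min at 37C. cAMP read by HTRF (cAMP-d2 and anti-cAMP antibody-K in lysis buffer) after 30 min RT.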
Six1-Eya2 blk: qHTS Assay for Inhibitors of the Six1/Eya2 Interaction; Homeobox protein SIX1 (Homo sapiens) + Protein phosphatase EYA2 (Homo sapiens), …; AID 651725, 2012; activity change, % (concentration not given with the values); 360,000 compounds, 0.56% hits; AlphaScreen GST-Six1/His-Eya2 binding, biochemical; active compounds read low; control for the full effect not named in the record; in the data active = activity change below about -65%; inconclusive = about -30% to -65%; inactive = above about -30%; further: on the % scale 0 is the no-effect control and ±100 the full control effect
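Compounds are tested against tagged Six1 and Eya2 proteins bridged by glutathione donor and nickel acceptor beads; after a one-hour incubation at 37 °C without light, AlphaScreen emission is recorded.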
CtBP-E1A blk: qHTS Assay for Inhibitors of the CtBP/E1A Interaction. activity change, % (no concentration beside the values). AlphaScreen GST-E1A/His-CtBP binding, 1536-well; active compounds read low; control for the full effect not named in the record. 340,000 compounds, 0.49% hits. CtBP / adenovirus E1A interaction (AlphaScreen); in the data active means activity change below about -65%; inconclusive means about -30% to -65%; inactive means above about -30%; further: on the % scale 0 is the no-effect control and ±100 the full control effect
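AlphaScreen with 125 nM GST-E1A and 125 nM His-CtBP (5X stocks) in Tris pH 8.0, 300 mM NaCl, BSA, Tween 20, TCEP. Compounds preincubated 2 h at 37 deg C, then glutathione donor/nickel acceptor beads added for 1 h at 37 deg C in dark.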
D2 agonist: Beta-Arrestin HTS for Positive Allosteric Modulators of the Human D2 Dopamine Receptor: Agonists | 360,000 compounds, 0.084% hits | DiscoveRx PathHunter D2 beta-arrestin, luminescence, 90 min; 100% = 57 uM dopamine signal | activation, % (no concentration beside the values); in the data active = activation above about 40%; inconclusive = about 15% to 40%; inactive = below about 15%; further: compound concentration not given in the record; the text of the record calls up to 30% inactive
Target sequence (P14416 whole entry, looked up): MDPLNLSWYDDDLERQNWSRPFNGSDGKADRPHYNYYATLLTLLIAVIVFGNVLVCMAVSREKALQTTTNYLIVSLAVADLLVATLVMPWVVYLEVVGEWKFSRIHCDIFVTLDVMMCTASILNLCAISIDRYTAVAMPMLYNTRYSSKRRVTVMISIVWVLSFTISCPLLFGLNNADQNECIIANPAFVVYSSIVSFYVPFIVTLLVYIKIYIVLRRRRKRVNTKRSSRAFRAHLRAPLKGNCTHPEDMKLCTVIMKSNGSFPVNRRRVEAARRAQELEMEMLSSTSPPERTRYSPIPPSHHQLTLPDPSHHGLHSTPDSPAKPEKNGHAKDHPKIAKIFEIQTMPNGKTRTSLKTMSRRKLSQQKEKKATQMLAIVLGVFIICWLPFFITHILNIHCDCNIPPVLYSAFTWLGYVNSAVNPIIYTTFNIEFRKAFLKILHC
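Agonist mode: compounds alone added to overnight-plated D2 PathHunter cells for 90 min at 37 C, with 57 uM final dopamine (EC100) defining full response. Beta-arrestin recruitment detected by chemiluminescent reagent, read after 1 h at ambient temperature.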
D2 potentiator: Beta-Arrestin HTS for Positive Allosteric Modulators of the Human D2 Dopamine Receptor: Potentiators; 360,000 compounds, 0.23% hits; DiscoveRx D2 beta-arrestin cells, luminescence, 90 min; 100% = 57 uM dopamine signal; potentiation, % (test concentration not listed); AID 624464, 2012; active = potentiation of 50% or more; inconclusive = 30% to 50%; inactive = 30% or less;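 further: compound concentration not given in the record; tested on top of an EC20 dose of dopamine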
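PathHunter D2 cells, attached overnight at 37 deg C, received compound in DMSO plus dopamine at EC20 (50 nM final) for 90 min at 37 deg C. Beta-arrestin recruitment was read as luminescence after 1 h with detection reagent at ambient temperature.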
gsp ag: qHTS for Agonist of gsp, the Etiologic Mutation Responsible for Fibrous Dysplasia/McCune-Albright Syndrome: qHTS; AID 624287, 2012; 340,000 compounds, 0.13% hits; Potency, µM (doses to about 76.9 µM), without a hit: top-dose activation (cAMP increase), actives largely listed as activators; gsp mutant cells, cAMP HTRF, 30 min; control for the full effect not named in the record; active = well fitted activation curve with a large enough effect; inconclusive = small, poorly fitted or top-dose-only effect, or another doubt; inactive = no such curve, though single readings can be large or run the other way; cell line not stated here;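 further: phosphodiesterase inhibitor Ro 20-1724 added with compounds to block cAMP breakdown; potency means the concentration at half of the fitted maximal effect; nearly all actives have a fitted effect of over 60% in size; about a fifth of the inactives were tested at one dose only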
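Cells stably selected in G418 were plated at 2000/well, grown 16-24 hr, then given compounds in DMSO with the PDE inhibitor […] (300 uM solution added) for 30 min at 37C; cAMP was read by HTRF.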
Starred values were filed as active, the others as inactive; ? = inconclusive; · = no result given; & = joins results of further samples; [ ] = another dose, or the depositor's remark.

Compound,gsp antagonist,Six1-Eya2 blk,CtBP-E1A blk,D2 agonist,D2 potentiator,gsp ag
COc1ccc(N(CC(=O)N2CCC(C)CC2)S(=O)(=O)c2c(C)nn(C)c2C)cc1,5.4%,-2.4,3.1,-3.0,-0.7,-9.5%
Cc1c(NC(=O)c2cccs2)cccc1-c1nc2ccccc2s1,?,-3.0,-16.2,-4.3,-25.1,-36.8%[inhibitor]
Cc1ccc(C(=O)C2=C(O)C(=O)N(Cc3cccnc3)C2c2cccc([N+](=O)[O-])c2)o1 (stereo not drawn),7.5%,-1.4,-0.3,-2.1,4.9,6.9%
Cc1ccc(S(=O)(=O)Oc2ccc(/C=C(/NC(=O)c3ccccc3)C(=O)NCCCC(=O)O)cc2)cc1,·,-1.0,0.0,5.2,-0.7,-3.2%[15.4 µM]
CCOc1ccc(N2C(=O)Nc3ccccc3C2(O)C(=O)N2CCN(c3ccccn3)CC2)cc1 (stereo not drawn),-19.1%,3.3,0.2,-7.4,-36.1,-6.1%[15.4 µM]
Cc1ccc(Cn2ccc(NC(=O)c3cc(-c4cccc(Cl)c4)on3)n2)cc1,4.9%,7.7,9.9,-0.6,-5.3,-3.4%
CNc1nc(N)c([N+](=O)[O-])c(NCc2ccccc2)n1,12.4%,-1.0,-3.5,-1.4,-21.4,0.9%
Cc1cc(C)nc(Nc2nc(C(N)Cc3ccc(Cl)cc3)cs2)n1 (stereo not drawn),·,-17.3,-23.9,-2.7,-10.7,·
CC[C@]12c3[nH]c4ccc(Cl)cc4c3CCN1C(=O)[C@@H](CC(=O)NC/C=C(\C)CCC=C(C)C)C[C@@H]2C(=O)N1CCN(C(=O)C2CC2)CC1,-6.5%,-10.0,0.0,0.3,-9.1,·
COc1cccc(CNc2ccc3[nH]c(=O)[nH]c3c2)c1OCc1ccccc1F,?,?,·,7.2,-9.8,-13.2%
CC(=O)O[C@H]1CC[C@@]2(C)[C@@H](CC[C@H]3[C@@H]4CC[C@H](C(C)O)[C@@]4(C)CC(=O)[C@@H]32)C1 (stereo partly drawn),8.7%,1.7,·,-1.5,-6.5,-47.9%[inhibitor]
C[C@H](N)c1nnc(SCc2c(Cl)cccc2Cl)o1,13.2%,-5.4,-14.3,-2.7,0.5,14.7%
COc1ccccc1CCC(=O)NCCCn1ccc2ccccc21,-11.2%,-1.4,-2.1,1.2,-7.6,-12.6%
Cc1ccc(NC(=O)NC(=O)CN2CCC(C(N)=O)CC2)c(C)c1,6.2%,-0.2,-20.7,-3.6,-3.4,?
COc1ccc(OC)c2sc(N(CCN(C)C)C(=O)c3ccc4ccccc4c3)nc12,10.8%,-18.3,-21.9,-2.9,-8.7,4.6%[15.4 µM]
COc1ccc(NC(=O)C(C)N2C(=O)c3ccccc3S2(=O)=O)c(OC)c1 (stereo not drawn),-1.4%,-10.4,3.6,-7.2,-12.8,-28.0%
CC(C)=C[C@@H]1C[C@H](C)[C@H]2CC[C@H](C)c3c(O[C@@H]4O[C@@H](C)[C@@H](O)[C@@H](O)[C@@H]4O)c(O)c(C)c1c32,7.7%,-6.6,-16.1,0.6,-4.6,?
COc1ccc(OCC(=O)O/N=C(\N)c2ccc(OC)c(OC)c2)cc1,-18.0%,1.3,4.8,3.1,3.0,-7.9%
Cc1ccc2c(c1)C1CN(C)CCC1N2C(=O)COc1ccc(N(C)S(=O)(=O)c2cccs2)cc1 (stereo not drawn),-14.0%,-7.3,-4.0,-0.7,-13.8,-3.7%[15.4 µM]
O=C(Nc1nnc(-c2ccc3c(c2)CCCC3)o1)c1ccc(Cl)cc1Cl,-22.0%,-10.4,-6.0,-2.4,-0.4,-34.0%[inhibitor]

2 compounds picked at random from those above:
Compound,gsp antagonist,Six1-Eya2 blk,CtBP-E1A blk,D2 agonist,D2 potentiator,gsp ag
Cc1ccc(NC(=O)NC(=O)CN2CCC(C(N)=O)CC2)c(C)c1,6.2%,-0.2,-20.7,-3.6,-3.4,?
C[C@H](N)c1nnc(SCc2c(Cl)cccc2Cl)o1,13.2%,-5.4,-14.3,-2.7,0.5,14.7%

(further entries)
Compound,gsp antagonist,Six1-Eya2 blk,CtBP-E1A blk,D2 agonist,D2 potentiator,gsp ag
O=C(O)C1CCN(S(=O)(=O)N2CCOCC2)CC1,-1.5%,7.5,9.6,-3.2,1.1,-17.0%
Cc1ccc(C(C)NC(=O)c2cc3cc(Br)ccc3oc2=N)cc1 (stereo not drawn),-7.4%,0.5,2.9,-4.5,-13.4,-2.1%[15.4 µM]
Cc1ccc(Nc2nc(C)cc(C)n2)c(Br)c1,-1.4%,14.6,12.9,-1.2,-2.8,17.4%
Cc1nonc1C(=O)N/N=C/c1ccccc1,8.3%,-4.3,·,0.8,-3.2,10.5%[15.4 µM]
CC1=NS(=O)(=O)c2cc(Cl)ccc2N1,-0.1%,0.9,5.0,-8.6,2.1,·
O=C(CNC(=O)Cc1ccccc1)NCC(=O)OCC(=O)c1ccc(F)cc1,-20.7%,10.7,5.7,-11.2,-0.5,-5.6%[15.4 µM]
Cc1ccc(C)c(N2CCN(S(=O)(=O)c3cn(C)cn3)CC2)c1,6.8%,-4.0,0.0,-3.8,-9.2,17.5%
COCCNC(=O)NC(=O)COC(=O)c1cc([N+](=O)[O-])ccc1Sc1nc(C)cs1,-0.9%,-4.6,-2.5,-2.2,3.4,-2.0%
Cn1c(Cc2cccc3ccccc23)nnc1SCC(=O)N1CCN(c2cccc(Cl)c2)CC1,-26.5%,-16.6,-13.6,-1.7,-8.0,-9.7%
CC1CN(C(=O)c2cc(-c3ccncc3)nc3ccccc23)CC(C)O1 (stereo not drawn),?,11.7,13.7,-3.2,-0.5,-7.6%
COc1cc(/C=N/NC(=O)C[n+]2ccccc2)cc(OC)c1OC(C)=O,-0.1%,3.9,-0.6,-0.3,-6.6,-5.9%[15.4 µM]
CC(C)CN(CC(C)C)c1nnc(NC(=O)Cn2c(=O)oc3ccccc32)s1,-6.0%,5.0,-1.1,7.0,1.3,-17.4%
CCC(=O)Nc1cnc(NC(=O)c2cccc(F)c2)cc1C,-5.2%,0.1,3.2,0.0,-9.9,14.6%
CCc1ccc(C2=CSC3=NCCN23)cc1,9.0%,5.2,·,-5.1,-1.9,-3.8%
O=c1c2ccccc2nnn1CCO,4.1%,4.4,·,-3.4,2.3,-6.5%
CCCCCCCCCCCCCCCC[n+]1cccc(C(=O)N(CC)CC)c1,5.1%&-0.5%,-4.8&-3.4,0.0&-14.7,-6.3&-1.0,-14.9&-15.1,21.8%&-7.0%
CSCCC(NC(=O)COc1ccccc1)C(=O)OCCOc1ccc(Br)cc1 (stereo not drawn),-7.1%,-0.7,-20.1,0.1,7.7,-20.0%[15.4 µM]
COc1cc(O)c2c(=O)c(-c3ccc(O[C@@H]4O[C@H](CO)[C@@H](O)[C@H](O)[C@H]4O)cc3)coc2c1,16.0%,-1.7,-2.2,-2.3,-5.9,2.1%[15.4 µM]
Cc1ccc(S(=O)(=O)NCc2ccco2)c(C)c1C,-1.9%,0.0,3.0,-5.8,7.3,22.2%
Cc1ccc(N2CC(C(=O)OCC(=O)Nc3c(C)cccc3C)CC2=O)cc1 (stereo not drawn),·,35.7,2.0,-1.8,-10.0,?
O=C(CCCCn1c(=O)[nH]c2ccccc2c1=O)NCCc1c[nH]c2ccccc12,2.1%,3.6,-2.0,-3.4,-3.8,-3.5%
CC1(C(=O)NS(=O)(=O)c2ccc(Br)cc2)CCN1C(=O)CCc1cccs1 (stereo not drawn),·,1.2,5.3,3.6,2.9,·
CC(C)(C)c1ccccc1OCCCCCNCCO,13.3%,6.5,1.2,-4.7,-16.1,?
CCCCN(CC)CCCNC(=O)Cn1nc(Cc2cccnc2)c2ccccc2c1=O,13.6%,1.1,-8.3,0.8,-11.8,-85.5%[inhibitor]
CCOC(=O)C1CCN(S(=O)(=O)c2ccc3c(ccn3C)c2)CC1,2.6%,-2.2,3.3,1.5,-11.1,?
O=[N+]([O-])c1cc(Br)cc(C=Nc2ccc3c(c2)OCO3)c1O,-11.3%,-0.9,·,-3.5,-10.2,11.8%
N#CC1(c2ccccc2)CCC(=NO)CC1 (stereo not drawn),5.5%,1.9,5.1,0.0,-20.8,?
CC(=O)C[C@H]1c2ccccc2S(=O)(=O)N1C1CCCCC1,7.8%,0.7,·,-0.6,-1.3,12.7%
CN(c1ccc(C(=O)Nc2ccc3c(c2)OCO3)cc1)S(C)(=O)=O,1.7%,-10.8,·,-4.0,-13.4,-26.8%
O=C(CN(CC1CCCO1)C(=O)CCC(=O)Nc1nccs1)NCc1ccc2c(c1)OCO2 (stereo not drawn),1.9%,10.6,11.9,1.7,1.8,2.3%
O=C(CNC(=O)c1ccc(F)cc1)NCc1ccccn1,7.9%,-13.0,·,-0.9,1.5,-6.8%
CCN(CC(=O)Nc1ccccc1C(F)(F)F)C(=O)c1oc2c(Cl)cccc2c1C,-3.6%,12.6,10.6,-1.6,23.7,-22.5%
O=C(Nc1ccc(S(=O)(=O)N2CCCCCC2)cc1)c1c(F)cccc1F,-5.2%,6.0,-15.6,0.2,-23.7,-4.7%[15.4 µM]
O=C(NC(=S)NCCc1ccccn1)c1ccccc1,-2.5%,3.7,-2.4,-1.2,-3.7,12.0%[15.4 µM]
CCOC(=O)c1c(N)sc(C(=O)N(C)C)c1C,7.1%[15.4 µM],0.0,-0.2,-3.6,1.5,2.7%
O=C1C=C(c2ccc(F)cc2OCc2ccccc2)C[C@@H](c2ccc(F)cc2)C1,-4.7%,27.6,0.0,-3.3,-6.5,·

Bioassay records (PubChem BioAssay)
